Assay outcomes from PubChem BioAssay.
Bead autofluor = flagged as autofluorescent in microsphere protease counterscreen | fluorescence intensity (concentration not given with the values) | compound autofluorescence counterscreen, microsphere flow cytometry; active compounds read high | actives 3.1% (n = 360,000) | AID 624483;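 active = at least 3 SD above the mean of all compounds, about 16000 in these data; inconclusive = too few beads counted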;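 also: 100 nL of 1 mM stock went into each well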
Mtb hypoxia rep = reduces hypoxia-regulated biosensor signal in M. tuberculosis. M. tuberculosis hypoxia-regulated fluorescent reporter, fluorescence. fluorescence inhibition, % (concentration not given with the values). actives 0.1% (n = 300,000);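 active = 35 to 45% if threefold the growth effect, above 45% if 1.5-fold the growth effect; inactive = the rest, general growth blockers included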;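 also: wells of about 50 µL received 100 nL stock; 0% = vehicle wells and 100% = reference inhibitor wells; whole bacteria with a GFP reporter of the hypoxia response; strong numbers were not always called active; many hits fall short of the cut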
PrP 5UTR inh = inhibition of PrP 5' UTR reporter expression; cell-based PrP 5' UTR mRNA reporter, plate reader; inhibition, % (test concentration not listed); actives 0.35% (n = 340,000);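 active = every replicate at 50% or more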;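 also: 0 = median of the neutral control wells; tested in H4 reporter cells; numbers are from one replicate; inactives centre near -14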
ugtP null kill = compounds lethal to S. aureus RN4220 ugtP deletion mutant; OD600 growth, 16 h; some inactives read as strong as hits; growth inhibition, % (test concentration not listed); actives 0.54% (n = 330,000);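 active = z-score under -3 and OD600 up to 0.15 on both plates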;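 also: plate controls were untreated wells for no effect and antibiotic for full effect; wells of about 80 µL received 100 nL stock; the first replicate is given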
Sa RN4220 lethal = kills Staphylococcus aureus RN4220. S. aureus RN4220 growth, OD600, 16 h. inhibition, % (concentration not given with the values). actives 0.33% (n = 330,000). AID 1259311;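 active = z-score of -3 or lower and OD600 up to 0.18 on both plates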;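 also: plate controls were untreated cells for no effect and reference antibiotic for full effect; stock transfer was 100 nL into about 80 µL; one replicate is shown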
BJeLR lethal = BJeLR cell viability loss | BJeLR (HRASV12) viability, CellTiter-Glo ATP luminescence, 48 h; reference of the scale not given here | inhibition, % (test concentration not listed) | actives 0.17% (n = 300,000);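 active = replicate mean above 50%; inconclusive = above 50% but judged a plate artefact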;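 also: 50 nL library stock added to about 25 µL; numbers are from one replicate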
Mtb hypoxia rep growth = further read-out of Mtb hypoxia rep, marked with its call; growth inhibition, %; measured here: M. tuberculosis growth (absorbance);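 0% = vehicle and 100% = reference antibiotic; read after six days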
Numbers without * were called inactive; ? = inconclusive; · = not tested or not shown. Compounds were not picked by outcome; overall some 3.9% were active at least once.

SMILES	Bead autofluor	Mtb hypoxia rep	Mtb hypoxia rep growth	PrP 5UTR inh	ugtP null kill	Sa RN4220 lethal	BJeLR lethal
CCN1C(=O)c2ccc(C(=O)NCc3ccc4c(c3)OCO4)cc2C1=O	16137*	-2.9	2.2	-9.6	6.8	3.3	-2.9
COc1ccc(C2CC(c3ccc4ccccc4c3)=NN2C(=O)CSc2ncccn2)cc1 (stereo not given)	8609	5.6	-5.3	-38.2	-16.7	-5.3	1.9
CCOC(=O)Cn1c(-c2cccnc2Cl)nc2cc(C)c(C)cc21	22326*	-4.5	14.4	-17.7	-6.4	-1.8	3.0
Cc1cc(C)n2nc(C(=O)OCC(=O)N(C)C3CCS(=O)(=O)C3)nc2n1 (stereo not given)	·	-1.4	9.0	-17.3	4.2	7.8	·
Cn1c(Br)nc2c1c(=O)n(Cc1ccccc1)c(=O)n2C	3893	13.8	3.2	-13.5	8.0	6.9	5.1
CSc1ccc(Cl)c(C(=O)NCC(C)C)c1	5846	6.0	19.1	-33.5	9.5	6.4	3.8
CCOc1ccc(C2/C(=C(\O)c3ccc4c(c3)OCCO4)C(=O)C(=O)N2CCN2CCOCC2)cc1OCC (stereo not given)	5252	-5.3	-3.2	-14.8	-0.8	0.1	-6.8
CCOc1ccc(-c2cnc(N)n2C)cc1	4041	-0.8	7.7	-26.9	-5.9	3.1	6.8
Cc1ccc(C=Nc2sc(Cc3ccccc3)c(C)c2C(N)=O)o1	·	10.4	4.9	·	-2.6	2.6	·
CC(C)(C)NC(=O)NC(=O)CN1CCCCC1	3332	6.5	9.4	-9.1	6.9	0.9	2.8
Nc1ccc(C(=O)c2ccc3c(c2)OCCO3)cc1N	21110*	0.4	2.3	-78.4	-2.6	-1.4	-2.5
COc1ccc(C2(O)CCN(C(=O)c3ccc4c(c3)OCO4)CC2)cc1	3342	·	·	-12.3	8.3	-0.1	-0.5
C=CCOc1ccc(C(c2c(C)n(C)n(-c3ccccc3)c2=O)c2c(C)n(C)n(-c3ccccc3)c2=O)cc1	3304	7.1	11.3	-11.2	6.4	1.6	3.1
O=C(N/N=C/c1ccco1)c1ccc(NC(=O)C2CC2)cc1	3730	·	·	-11.3	·	·	-4.4
COc1ccc(CNC(=O)Cc2csc(NC(=O)Nc3ccccc3OC)n2)cc1	6970	-1.6	-1.5	-48.1	13.5	15.2	0.8
CCC(=O)N1c2ccccc2NC2=C(C(=O)CCC2)C1c1ccccc1 (stereo not given)	8244	17.1	6.1	-28.0	4.7	1.8	-0.9
COc1ccc(-n2cnc3cc(NCc4cccs4)ccc32)cc1	3601	·	·	-14.4	-4.7	4.5	-7.5
COc1cccc(-c2nnc(SCC(N)=O)n2-c2ccc(Cl)cc2)c1	11521	12.9	5.1	-11.4	2.6	2.8	4.3
Cc1n[nH]c(C)c1S(=O)(=O)N(CC(=O)N1CCc2ccccc21)c1ccc(C(C)C)cc1	4232	·	·	-15.4	7.6	5.1	-3.1
O=C(Nc1ccccc1)N1CCCN(c2ccc(C(F)(F)F)cc2[N+](=O)[O-])CC1	·	3.7	11.4	-11.8	-4.1	6.5	-3.8
Nc1nc2n(n1)C(c1cccs1)CC(c1ccccc1)N2 (stereo not given)	3699	·	·	-12.9	10.9	4.4	-10.9
CC(=O)Nc1sc(NN=Cc2ccc(C)cc2)nc1-c1ccc(C)cc1	·	20.7	32.5	·	-3.0	-8.3	·
Cc1cc(NC(=O)CC(F)(F)F)n(-c2ccccc2)n1	2037	10.8	-4.6	-21.8	10.4	2.3	-2.6
Cc1ccc(/C(O)=C2/C(=O)C(=O)N(c3ccccn3)C2c2ccc(F)cc2)cc1 (stereo not given)	4105	6.7	9.0	-30.9	-0.6	5.1	-2.5
COc1cc(NS(=O)(=O)c2ccc(NC(=S)NC(=O)c3ccccc3)cc2)nc(OC)n1	3203	-0.6	8.6	1.2	5.8	7.1	4.9
CC(C)OC(=O)CSc1nnc(-c2cccnc2)n1Cc1ccccc1	?	17.8	1.4	-1.3	4.1	5.6	-3.1
CCN(CC)S(=O)(=O)c1ccc(N2CCCC2)c(C(=O)Nc2ccc(OC)c(Cl)c2)c1	2532	1.5	-1.2	-19.1	5.2	1.7	5.7
CCOc1ccc2[nH]cc(C(=O)NCCCN3CCOCC3)c(=O)c2c1	4556	12.0	8.9	-7.6	10.5	19.9	3.2
O=C(NNc1ncnc2c1cnn2-c1ccccc1)c1cccs1	3908	10.2	5.9	8.7	2.5	7.1	2.0
Cc1onc(-c2ccccc2)c1C(=O)N1CCN(Cc2ccc3c(c2)OCO3)CC1	2334	0.5	3.4	-32.2	0.9	4.9	-5.1

Some of the entries so far, with values under each structure:
Every second line gives: Bead autofluor	Mtb hypoxia rep	Mtb hypoxia rep growth	PrP 5UTR inh	ugtP null kill	Sa RN4220 lethal	BJeLR lethal
Cc1ccc(/C(O)=C2/C(=O)C(=O)N(c3ccccn3)C2c2ccc(F)cc2)cc1 (stereo not given)
    4105	6.7	9.0	-30.9	-0.6	5.1	-2.5
CCOC(=O)Cn1c(-c2cccnc2Cl)nc2cc(C)c(C)cc21
    22326*	-4.5	14.4	-17.7	-6.4	-1.8	3.0

Later entries.
SMILES	Bead autofluor	Mtb hypoxia rep	Mtb hypoxia rep growth	PrP 5UTR inh	ugtP null kill	Sa RN4220 lethal	BJeLR lethal
Cc1ccc(S(=O)(=O)N2CCCCC2)cc1C(=O)NC1CCCCC1	5131	17.1	3.1	-17.9	2.6	3.5	0.1
CCCc1cc(-c2ccc(O)c(OCC)c2)c(C#N)c(N)n1	3137	17.1	16.0	-5.6	13.3	7.5	-3.7
COCCCNC(=O)c1ccc(C2SCC(=O)N2Cc2ccco2)cc1 (stereo not given)	4416	2.0	2.4	-2.1	4.5	1.3	-1.5
CC1CN(S(=O)(=O)c2ccc(F)cc2)C(C)N1C(=O)N1CCOCC1 (stereo not given)	4579	11.3	5.1	-7.6	11.6	1.4	-1.0
Cc1ccc(CC2CC(=O)N(c3nc4ccccc4n3C)C2=O)cc1 (stereo not given)	2391	·	·	-13.6	-2.1	1.5	-3.7
CCN1C(=O)c2cccc3c(S(=O)(=O)N(C(C)=O)c4ccc(OC(C)=O)cc4)ccc1c23	5736	9.8	1.6	-20.0	-19.7	3.0	·
O=C(CN1C(=O)COc2ccccc21)NCc1ccccn1	10461	1.8	3.7	-30.7	2.6	2.5	-5.6
c1ccc(C2CCC(N3CCN(c4ccccc4)CC3)CC2)cc1 (stereo not given)	4166	12.9	-7.3	-13.6	11.9	3.7	-3.9
CNC(=O)c1cccc2cccc(Sc3ccccc3C(=O)O)c12	5758	11.2	7.3	-20.4	9.9	2.3	-1.3
COc1ccc(/C=N/Nc2nc(C(=O)O)cs2)cc1	3607	·	·	-44.9	·	·	0.4
COC(=O)c1ccccc1NC(=O)CSc1n[nH]c(-c2ccco2)n1	3893	14.1	-1.3	-19.3	-0.2	3.8	10.8
CCOC(=O)Cc1csc(NC(=O)Cc2ccc(Cl)cc2)n1	6259	11.5	4.5	-26.9	6.8	-5.0	14.4
CCCC[C@H](CN[C@@H](CNC)[C@H](C)CC)NCCC12CCC(CC1)C2	3065	·	·	-3.0	·	·	9.9
CC(=O)c1ccc(N2CCN(C(=O)C3CCCN(S(=O)(=O)c4cnc[nH]4)C3)CC2)cc1 (stereo not given)	?	-2.5	8.1	-11.8	-1.9	0.4	0.5
COc1ccc(C(=O)Nc2ccc3ccccc3c2)cc1	3139	1.4	-1.5	-7.1	2.8	-0.5	4.3
NS(=O)(=O)c1ccc(N2N=C(c3ccccc3)CC2c2ccccc2)cc1 (stereo not given)	2459	10.4	-1.3	-34.5	-2.1	9.1	13.9
FC(F)(F)c1ccc(Cl)c(-n2c(-c3cc(-c4ccco4)[nH]n3)n[nH]c2=S)c1	3422	14.2	6.0	-22.7	-20.7	1.3	-0.9
CCOC(=O)N1CCC(NC(=O)c2cccs2)CC1	6015	21.2	3.0	-4.1	12.0	4.2	-10.4
CCCOc1ccc(C(=O)NC(=S)NNC(=O)c2c(-c3ccccc3)noc2C)cc1	3564	-8.3	8.8	2.1	-9.4	32.6	0.7
CC1CCC2(CC1)NC(=O)N(CC(=O)Nc1sc3c(c1C(N)=O)CCC3)C2=O (stereo not given)	4328	8.8	6.8	-5.5	-2.7	2.0	-6.6
FC(F)(F)c1cccc(NC(=S)NC2CCCC2)c1	2709	2.2	8.7	-27.5	-16.6	0.8	0.9
CC(=O)c1c(C)[nH]c(C(=O)OCC(=O)Nc2ccc(Cl)c(S(=O)(=O)N(C)C)c2)c1C	4609	3.4	11.6	-3.8	16.6	3.3	5.8
COc1c(C(O)CC(C)C)ccc2c1C(=O)OCc1cc(C)cc(O)c1O2 (stereo not given)	6149	·	·	-11.2	-2.6	2.0	0.3
Cc1nc2ccccc2n1CC(=O)NCCN1CCOCC1	15836	-1.6	-0.6	-10.7	9.6	5.2	5.1
CC1=C(C(=O)Nc2ccc(CC(=O)NCc3ccccc3C)cc2)SCCO1	6314	5.6	6.6	-18.2	5.0	2.1	-13.7
COCCN(C(=O)COC(=O)CCCc1c[nH]c2ccccc12)c1c(N)n(Cc2ccccc2)c(=O)[nH]c1=O	3107	0.9	-2.2	3.8	6.4	2.3	·
CCCCn1c(SCc2nnc(-c3ccccc3)o2)nc2c1c(=O)n(C)c(=O)n2C	14750	1.9	0.9	-32.4	15.4	6.8	6.4
CC(=O)Nc1cccc(C(=O)Oc2cccc(C)c2)c1O	3550	·	·	-1.5	7.7	4.4	1.0
CCOC(=O)CN1C2=NCCCN2c2ccccc21	1736	7.8	5.8	3.4	1.4	3.8	-1.6
CC(C)(C)c1ccc(C2CC2C(=O)N/N=C\c2cc3ccccc3nc2Cl)cc1 (stereo not given)	9817	·	·	-28.5	·	·	7.4

Limited to PrP 5UTR inh and ugtP null kill (four entries from above):
SMILES	PrP 5UTR inh	ugtP null kill
CCCOc1ccc(C(=O)NC(=S)NNC(=O)c2c(-c3ccccc3)noc2C)cc1	2.1	-9.4
CC1CCC2(CC1)NC(=O)N(CC(=O)Nc1sc3c(c1C(N)=O)CCC3)C2=O (stereo not given)	-5.5	-2.7
FC(F)(F)c1cccc(NC(=S)NC2CCCC2)c1	-27.5	-16.6
CC(=O)c1c(C)[nH]c(C(=O)OCC(=O)Nc2ccc(Cl)c(S(=O)(=O)N(C)C)c2)c1C	-3.8	16.6

Remaining list, next part
SMILES	Bead autofluor	Mtb hypoxia rep	Mtb hypoxia rep growth	PrP 5UTR inh	ugtP null kill	Sa RN4220 lethal	BJeLR lethal
CC(C)c1nc2sc3c(NCc4ccco4)ncnc3c2c2c1COC(C)(C)C2	2940	5.6	6.3	1.8	13.2	-4.3	0.3
CCOC(=O)c1c(NC(=S)N2CCN(C)CC2)sc(C)c1-c1ccccc1	5463	13.7	10.7	5.8	3.4	-1.3	1.9
C=CCC(CC(=O)NCCO)C(=O)NCCOC(=O)C(CC=C)CC(=O)OC(C)(C)C (stereo not given)	·	7.4	13.7	·	-4.6	2.0	·
COc1cccc(-n2c(=O)n(Cc3ccccc3)c(=O)c3[nH]cnc32)c1	4271	4.3	-6.9	9.9	0.1	3.4	-9.3
CC(C)NC(=O)NC(=O)CN1C(=O)NC(Cc2c[nH]c3ccccc23)C1=O (stereo not given)	4555	10.6	5.5	-27.3	-0.7	0.1	2.4
COc1ccccc1C=NOC(=O)c1ccc(F)cc1	·	-0.2	-5.9	·	7.2	17.7	·
c1ccc(CN=C2Nc3ccccc3CS2)nc1	2682	-1.1	1.5	-42.9	6.6	9.6	1.4
NS(=O)(=O)c1ccc(NC(=O)CSc2nnc(C3CC3)n2C2CC2)cc1	8973	0.8	3.9	-34.6	2.2	5.6	·
CCCCn1cc(C(=O)c2cc(Br)ccc2O)cc(C#N)c1=O	2139	·	·	-13.6	-5.5	0.9	-2.0
O=C(O)c1cc(N/N=C/c2ccc(N3CCOCC3)s2)ccc1Cl	10990	·	·	-21.7	·	·	-1.4
O=C(Nc1ccc(NC(=O)c2ccco2)cc1)c1cnccn1	3301	15.4	5.3	-35.7	5.1	9.4	0.1
O=C(c1cn(-c2ccccc2)nc1-c1cccc([N+](=O)[O-])c1)N1CCCCC1	2251	9.9	8.2	-18.6	-2.4	2.4	-0.6
O=C(CC(NS(=O)(=O)c1ccc(Cl)cc1)c1ccco1)N1CCc2ccccc21 (stereo not given)	5204	2.8	3.8	-10.7	8.2	8.8	-8.3
CCOc1ccccc1C(=O)NC(CO)C(=O)O (stereo not given)	?	0.8	-3.1	-14.2	5.1	3.4	-6.5
CCCC(=O)NC(c1cccs1)c1cc(Cl)c2cccnc2c1O (stereo not given)	4006	9.4	2.0	-12.3	-13.8	33.6	·
